# Vaccinia inh – blocks a specific stage of Vaccinia orthopoxvirus infection | Vaccinia-infected cells, mCherry/Venus stage reporter fluorescence; stronger effect = lower value; some inactives read as strong as hits | activity change (mCherry), % (test concentration not listed) | 89,000 tested, 0.01% active | AID 1053133;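 active means mCherry past -33% and 40 or more points under the early reporter, replicates agreeing; inconclusive means past -33% without that gap or agreement; tested in A549 cells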;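 further: scaled between vehicle wells and reference inhibitor wells; 23 nL library stock went into each well; one replicate is shown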
# Vaccinia inh Venus – recorded beside Vaccinia inh, whose call it bears; activity change (Venus), %; measured here: Venus reporter, other viral stage;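 negative = less Venus signal; first of two replicates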
# Active calls of the source: *; ? = inconclusive; . = not tested or not shown. Not all compounds are listed; the hit share may differ from the screen's.
entry	smiles	Vaccinia inh	Vaccinia inh Venus
1	COc1ccc(-c2ccc(C3[C@H]4CNC[C@@H]3N4Cc3cncnc3)cc2)cc1 (stereo not given in full)	-7	1
2	CC(=O)N(C)C[C@H]1Oc2cc(/C=C/c3ccccc3)ccc2S(=O)(=O)N([C@H](C)CO)C[C@@H]1C	4	1
3	C[C@H](CO)N1C[C@H](C)[C@H](CN(C)Cc2ccc3c(c2)OCO3)OCCCC[C@H](C)Oc2ccc(NC(=O)CCC(F)(F)F)cc2C1=O	-25	-15
4	C[C@H]1CN([C@@H](C)CO)C(=O)Cc2cc(N(C)C)ccc2O[C@H]1CN(C)CC1CC1	-6	1
5	O=C(C[C@@H]1CC[C@H]2[C@@H](COC[C@@H](O)CN2Cc2nccs2)O1)NCc1ccc(-c2ccccc2)cc1	-16	-14
6	CC=Cc1ccc2n(c1=O)C[C@@H]1[C@@H](CO)[C@H](C(=O)NCc3ccncc3)N(Cc3cncnc3)[C@H]21 (mixture of isomers)	11	1
7	C[C@H](CO)N1C[C@H](C)[C@H](CN(C)S(=O)(=O)c2ccccc2)Oc2ccc(NC(=O)Nc3cccc4ccccc34)cc2C1=O	11	10
8	COc1ccc(S(=O)(=O)N(C)C[C@H]2OCCCC[C@@H](C)Oc3ccc(NS(=O)(=O)c4ccc(C)cc4)cc3C(=O)N([C@H](C)CO)C[C@@H]2C)cc1	-22	-17
9	O=C(C[C@@H]1CC[C@@H]2[C@H](COC[C@@H](O)CN2C(=O)Nc2ccc(F)cc2)O1)NCCc1ccncc1	-6	-5
10	C[C@@H]1CN([C@@H](C)CO)C(=O)c2cccc(NC(=O)Nc3ccccc3)c2O[C@H]1CN(C)C	2	-2
11	COc1ccc2c3c([nH]c2c1)[C@@H](CO)N(C(=O)C1CCCC1)CC31CCN(C(=O)c2ccncc2)CC1	5	-3
12	COc1ccc(CN(C)C[C@H]2OCCCC[C@@H](C)Oc3ccc(NS(=O)(=O)c4c(C)noc4C)cc3C(=O)N([C@@H](C)CO)C[C@H]2C)cc1	-7	1
13	COc1ccccc1CNC(=O)C[C@@H]1CC[C@@H]2[C@@H](COc3ccc(NS(=O)(=O)c4ccc(C)cc4)cc3C(=O)N2C)O1	-19	-4
14	CN(C)CC(=O)N1CCCCN2[C@H](C1)[C@@H](c1ccc(-c3cccnc3)cc1)[C@@H]2CO	26	11
15	COc1ccc(S(=O)(=O)Nc2ccc3c(c2)C(=O)N([C@H](C)CO)C[C@@H](C)[C@@H](CN(C)S(=O)(=O)c2cn(C)cn2)O3)cc1	9	13
16	COCC#Cc1ccc2c(c1)O[C@H](CN(C)C(=O)c1ccccc1)[C@H](C)CN([C@H](C)CO)S2(=O)=O	0	-3
17	COc1ccc(C#Cc2ccc([C@@H]3[C@@H](CO)N4C(=O)CN(C(=O)c5ccncc5)C[C@@H]34)cc2)cc1	-7	-11
18	COc1ccccc1NC(=O)N1CC[C@@H]2[C@@H](CO)N(C)c3ccc(-c4cccc(F)c4)cc3[C@@H]21	?	.
19	CC(C)C#Cc1ccc2c(c1)O[C@@H](CN(C)CC1CCOCC1)[C@H](C)CN([C@H](C)CO)S2(=O)=O	-33	-28
20	C[C@H]1CN([C@@H](C)CO)C(=O)c2cc(NS(=O)(=O)c3cn(C)cn3)ccc2O[C@@H]1CN(C)Cc1ccc(-c2ccccc2)cc1	-3	6
21	CN1c2ccc(C3=CCCCC3)cc2[C@H]2[C@H](CCN2C(=O)C2CCCCC2)[C@@H]1CO	?	.
22	CCC(=O)Nc1ccc2c(c1)C(=O)N(C)C[C@H](OC)[C@@H](C)CN(C(=O)c1ccccn1)[C@H](C)CO2	1	0
23	C[C@H]1CN([C@@H](C)CO)C(=O)c2cc(C#Cc3cccnc3)cnc2O[C@@H]1CN(C)Cc1ccc(F)cc1	-10	3
24	CCC(=O)N1CC(=O)N2[C@@H](CO)[C@@H](c3ccc(C#Cc4cccnc4)cc3)[C@@H]2C1	5	7
25	C[C@H](CO)N1C[C@H](C)[C@@H](CN(C)CC2CCCC2)Oc2ncc(C#Cc3ccncc3)cc2C1=O	6	4
26	C[C@H](CO)N1C[C@H](C)[C@@H](CN(C)C)Oc2ncc(C3=CCCC3)cc2C1=O	-3	-8
27	Cc1ccc(-c2cnc3c(c2)C(=O)N([C@H](C)CO)C[C@@H](C)[C@@H](CN(C)C(=O)Cc2ccncc2)O3)cc1	-24	-13
28	C[C@@H]1CN([C@@H](C)CO)C(=O)c2cc(NC(=O)Cc3cn(C)c4ccccc34)ccc2O[C@@H]1CN(C)C(=O)Nc1ccc2c(c1)OCO2	1	-4
29	Cc1ccc(S(=O)(=O)N(C)C[C@H]2Oc3c(cccc3N(C)C)C(=O)N([C@@H](C)CO)C[C@@H]2C)cc1	-4	-11
30	CC(C)NC(=O)N1[C@@H](CO)[C@@H](c2ccccc2)C12CN(C(=O)CN(C)C)C2	5	6
31	O=C(C[C@H]1CC[C@@H]2[C@H](COC[C@H](O)CN2CCc2ccccc2)O1)NCc1ccc(Oc2ccccc2)cc1	?	.
32	C[C@@H]1CN([C@H](C)CO)C(=O)Cc2cc(NS(=O)(=O)c3ccccc3)ccc2O[C@H]1CN(C)S(=O)(=O)c1ccccc1	7	6
33	C[C@@H]1CN([C@H](C)CO)C(=O)c2cccc(NS(=O)(=O)c3ccccc3)c2O[C@H]1CN(C)C(=O)Nc1ccc(C(F)(F)F)cc1	6	6
34	Cc1ccc(S(=O)(=O)NCC[C@H]2CC[C@@H](NS(=O)(=O)c3ccccc3Cl)[C@@H](CO)O2)cc1	-12	-8
35	CCCNC(=O)C[C@@H]1CC[C@H]2[C@@H](COc3ccc(NC(=O)Cc4ccccc4)cc3C(=O)N2C)O1	10	10
36	C=CCNC(=O)[C@H]1[C@@H]2C(=O)O[C@@H](c3ccccc3)[C@@H](c3ccccc3)N2[C@@H](c2ccc(O)cc2)[C@]12C(=O)N(C(=O)OCCOC)c1ccc(C#CC3(O)CCCCCC3)cc12	-4	0
37	C[C@@H]1CCCCO[C@H](CN(C)Cc2ccc(C(=O)Nc3ccccc3N)cc2)[C@@H](C)CN([C@@H](C)CO)C(=O)c2cc(NS(=O)(=O)c3ccc(Cl)cc3)ccc2O1	-10	-1
38	CCCC#Cc1ccc([C@H]2[C@@H](C#N)N(S(=O)(=O)c3cccc(F)c3)[C@H]2CO)cc1	7	11
39	C[C@H]1CN([C@@H](C)CO)C(=O)c2cc(NC(=O)C3CC3)ccc2O[C@@H]1CN(C)Cc1ccccc1	-1	0
40	O=C(C[C@@H]1CC[C@H](NC(=O)C2CCC2)[C@@H](CO)O1)NCc1ccccc1Cl	4	4
41	C[C@@H]1CCCCO[C@@H](CN(C)Cc2ccccc2)[C@H](C)CN([C@@H](C)CO)C(=O)c2cc(N(C)C)ccc2O1	-18	-15
42	CN(C)CC(=O)N1[C@@H](C#N)[C@@H](c2ccccc2-c2cccc(C(=O)N(C)C)c2)[C@@H]1CO	11	11
43	O=C(C1=C[C@H](c2ccc(Br)cc2)C[C@H](OCCCCO)O1)N1CCN(Cc2ccccc2)CC1	8	-5
44	O=C(C[C@H]1CC[C@H]2[C@@H](COC[C@@H](O)CN2S(=O)(=O)c2cccc(Cl)c2)O1)Nc1ccccc1	-13	-1
45	C[C@@H]1CCCCO[C@@H](CN(C)C(=O)CCC(F)(F)F)[C@H](C)CN([C@H](C)CO)C(=O)c2cc(NS(=O)(=O)c3ccc(Cl)cc3)ccc2O1	-20	-20
46	Cc1ccccc1S(=O)(=O)N1CC[C@@H]2[C@H]1c1cc(-c3ccccc3)ccc1N[C@@H]2CO	-26	-19
47	O=C(NCc1ccccc1)[C@H]1N[C@H]2c3cccc(=O)n3C[C@H]2[C@@H]1CO	15	9
48	COc1cccc(NC(=O)N(C)C[C@@H]2OCc3ccccc3-c3ccccc3C(=O)N([C@@H](C)CO)C[C@@H]2C)c1	28	1
49	Cc1noc(C)c1NC(=O)N(C)C[C@H]1Oc2c(NC(=O)C3CC3)cccc2C(=O)N([C@@H](C)CO)C[C@@H]1C	6	14
50	COc1ccc(-c2ccc3c(c2)[C@H]2[C@H](CCN2C(=O)c2cccc(F)c2)[C@H](CO)N3)cc1	-25	-2
51	CC=Cc1ccc2n(c1=O)C[C@@H]1N[C@H]2[C@H](C(=O)NC2CCCC2)[C@H]1CO (mixture of isomers)	9	11
52	COc1ccc(CN(C)C[C@@H]2OCCCC[C@H](C)Oc3ccc(NC(=O)Nc4ccc(OC)cc4)cc3C(=O)N([C@@H](C)CO)C[C@@H]2C)cc1	?	.
53	CCNC(=O)[C@@H]1[C@@H](CO)[C@@H]2Cn3c(ccc(C4=CCCC4)c3=O)[C@@H]2N1C(=O)CC1CC1	31	13
54	O=C(C[C@H]1C[C@@H]2c3cc(NC(=O)c4cccnc4)ccc3O[C@@H]2[C@@H](CO)O1)NCCc1ccccc1	-2	6
55	CCC(=O)N1CC(=O)N2[C@H](C1)[C@H](c1ccc(C#Cc3cccc(F)c3)cc1)[C@@H]2CO	?	.
56	Cc1ccc(S(=O)(=O)Nc2ccc3c(c2)C(=O)N([C@@H](C)CO)C[C@@H](C)[C@@H](CN(C)C(=O)CCCN(C)C)OCCCC[C@H](C)O3)cc1	17	5
57	CNC(=O)C[C@H]1CC[C@H]2[C@@H](COC[C@@H](O)CN2Cc2ccc(C(F)(F)F)cc2)O1	0	1
58	COc1ccccc1-c1ccc([C@@H]2[C@H](C#N)N(C(=O)CN(C)C)[C@H]2CO)cc1	3	0
59	O=C(C[C@@H]1C[C@H]2c3cc(NC(=O)C4CCC4)ccc3O[C@H]2[C@@H](CO)O1)NC1CCCCC1	14	8
60	CCC(=O)Nc1ccc2c(c1)C(=O)N(C)C[C@@H](OC)[C@@H](C)CN(C(=O)c1cnccn1)[C@@H](C)CO2	11	9

# Part of the list above, with values under each structure.
# Fields: Vaccinia inh	Vaccinia inh Venus
31) O=C(C[C@H]1CC[C@@H]2[C@H](COC[C@H](O)CN2CCc2ccccc2)O1)NCc1ccc(Oc2ccccc2)cc1
 : ?	.
32) C[C@@H]1CN([C@H](C)CO)C(=O)Cc2cc(NS(=O)(=O)c3ccccc3)ccc2O[C@H]1CN(C)S(=O)(=O)c1ccccc1
 : 7	6
33) C[C@@H]1CN([C@H](C)CO)C(=O)c2cccc(NS(=O)(=O)c3ccccc3)c2O[C@H]1CN(C)C(=O)Nc1ccc(C(F)(F)F)cc1
 : 6	6
34) Cc1ccc(S(=O)(=O)NCC[C@H]2CC[C@@H](NS(=O)(=O)c3ccccc3Cl)[C@@H](CO)O2)cc1
 : -12	-8
35) CCCNC(=O)C[C@@H]1CC[C@H]2[C@@H](COc3ccc(NC(=O)Cc4ccccc4)cc3C(=O)N2C)O1
 : 10	10
36) C=CCNC(=O)[C@H]1[C@@H]2C(=O)O[C@@H](c3ccccc3)[C@@H](c3ccccc3)N2[C@@H](c2ccc(O)cc2)[C@]12C(=O)N(C(=O)OCCOC)c1ccc(C#CC3(O)CCCCCC3)cc12
 : -4	0
37) C[C@@H]1CCCCO[C@H](CN(C)Cc2ccc(C(=O)Nc3ccccc3N)cc2)[C@@H](C)CN([C@@H](C)CO)C(=O)c2cc(NS(=O)(=O)c3ccc(Cl)cc3)ccc2O1
 : -10	-1
38) CCCC#Cc1ccc([C@H]2[C@@H](C#N)N(S(=O)(=O)c3cccc(F)c3)[C@H]2CO)cc1
 : 7	11
39) C[C@H]1CN([C@@H](C)CO)C(=O)c2cc(NC(=O)C3CC3)ccc2O[C@@H]1CN(C)Cc1ccccc1
 : -1	0
40) O=C(C[C@@H]1CC[C@H](NC(=O)C2CCC2)[C@@H](CO)O1)NCc1ccccc1Cl
 : 4	4
41) C[C@@H]1CCCCO[C@@H](CN(C)Cc2ccccc2)[C@H](C)CN([C@@H](C)CO)C(=O)c2cc(N(C)C)ccc2O1
 : -18	-15

# Next section:
entry	smiles	Vaccinia inh	Vaccinia inh Venus
61	COc1ccc(NC(=O)N(C)C[C@@H]2Oc3c(NC(=O)Nc4ccc5c(c4)OCO5)cccc3C(=O)N([C@@H](C)CO)C[C@H]2C)cc1	9	3
62	COc1ccc(NC(=O)Nc2ccc3c(c2)C(=O)N([C@@H](C)CO)C[C@@H](C)[C@@H](CN(C)CC2CC2)OCCCC[C@@H](C)O3)cc1	-9	-9
63	COc1ccc2c3c([nH]c2c1)[C@@H](CO)N(Cc1ccccc1)CC31CCN(S(=O)(=O)c2ccc(C)cc2)CC1	17	3
64	Cc1noc(C)c1NC(=O)Nc1ccc2c(c1)C(=O)N([C@@H](C)CO)C[C@@H](C)[C@@H](CN(C)C(=O)Nc1ccc(C(F)(F)F)cc1)O2	11	6
65	O=C(C[C@H]1C[C@@H]2c3cc(NS(=O)(=O)c4ccccc4)ccc3O[C@@H]2[C@H](CO)O1)N1CCOCC1	4	5
66	C/C=C/c1ccc([C@H]2[C@@H](CNC(=O)CC3CC3)N(C(=O)CC)[C@H]2CO)cc1	4	14
67	O=C(C[C@@H]1C[C@@H]2c3cc(NC(=O)CC4CC4)ccc3O[C@@H]2[C@@H](CO)O1)NCc1ccc2c(c1)OCO2	2	-1
68	C[C@@H]1CCCCO[C@@H](CN(C)C(=O)Cc2ccccc2)[C@H](C)CN([C@@H](C)CO)C(=O)c2cc(NC(=O)Nc3ccccc3)ccc2O1	-17	-14
69	COCC(=O)Nc1ccc2c(c1)[C@H]1C[C@@H](CC(=O)NCc3ccccc3)O[C@H](CO)[C@H]1O2	5	4
70	Cc1ccc(S(=O)(=O)N(C)C[C@@H]2Oc3c(NC(=O)c4cc(C)nn4C)cccc3C(=O)N([C@H](C)CO)C[C@H]2C)cc1	9	5
71	O=C(C[C@@H]1CC[C@H]2[C@@H](COC[C@@H](O)CN2S(=O)(=O)c2ccccc2Cl)O1)NCc1ccccc1Cl	4	-10
72	C[C@H](CO)N1C[C@H](C)[C@H](CN(C)Cc2cccc(O)c2)OCc2cnnn2CCCC1=O	5	4
73	C[C@@H]1CN([C@@H](C)CO)C(=O)c2cccc(NS(=O)(=O)c3cn(C)cn3)c2O[C@H]1CN(C)C(=O)Nc1ccc(F)cc1	21	14
74	C[C@H](CO)N1C[C@H](C)[C@H](CN(C)C)Oc2ccc(NC(=O)CCN3CCOCC3)cc2CC1=O	13	3

# Compound activity: PubChem, Broad Institute
